Bioassay records as filed in PubChem.
VDR inhibitor: vitamin D3 receptor (human) inhibition | VDR-SRC2-3 peptide fluorescence polarization, 2 h | Potency, µM, for inactives: max response, negative = inhibition, actives largely listed as inhibitors | AID 504847 | P11473 | hit rate 0.93% among 400,000; active means well fitted inhibition curve with a large enough effect; inconclusive means small, poorly fitted or top-dose-only effect, or another doubt; inactive means no such curve, though single readings can be large or run the other way; further: series mostly up to about 120 µM
Target sequence (P11473 whole entry, looked up): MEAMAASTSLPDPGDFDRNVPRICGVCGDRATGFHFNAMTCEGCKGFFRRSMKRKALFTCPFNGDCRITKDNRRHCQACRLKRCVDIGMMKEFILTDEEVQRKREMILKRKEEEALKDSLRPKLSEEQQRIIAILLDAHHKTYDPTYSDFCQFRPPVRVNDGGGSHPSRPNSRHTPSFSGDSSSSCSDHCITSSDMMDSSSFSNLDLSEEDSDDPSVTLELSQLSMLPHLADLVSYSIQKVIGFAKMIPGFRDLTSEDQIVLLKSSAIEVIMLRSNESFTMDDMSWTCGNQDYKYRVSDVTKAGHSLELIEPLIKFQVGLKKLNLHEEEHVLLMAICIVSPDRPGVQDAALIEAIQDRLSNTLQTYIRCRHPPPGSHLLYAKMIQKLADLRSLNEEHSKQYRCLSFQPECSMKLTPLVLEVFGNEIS
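Compounds are added to VDR with labelled SRC2-3 coactivator peptide and held 2 h at room temperature. Inhibition of the VDR–peptide interaction is then read as a change in fluorescence polarization.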
An asterisk follows results filed as active; u = inconclusive. On the % scale 0 is the no-effect control and ±100 the full control effect; potency means the concentration at half of the fitted maximal effect. Not all compounds are listed; the hit share may differ from the screen's.

molecule | VDR inhibitor
COC(=O)c1cc(CNC(=O)c2sccc2-c2ccccc2)ccc1OC | 20.3%
O=C(Nc1nc(-c2ccco2)c(-c2ccco2)s1)c1c(F)cccc1Cl | 9.6%
COc1cccc(-n2c(Cc3cc(=O)[nH]c(=O)[nH]3)nnc2SCc2cccnc2)c1 | -5.9%
CCC(C)(C)NC(=O)COc1ccc(C(=O)c2ccccc2)cc1 | -11.8%
Cc1ccc(S(=O)(=O)c2nc(-c3cccc(Br)c3)oc2N2CCCCCC2)cc1 | -9.5%
COC(=O)[C@@H]1C[C@@]2(O)[C@H](O)[C@H](O)[C@H](O)C[C@H]2N1Cc1cccc2ccccc12 | 8.9%
Nc1nc(-c2ccco2)nn1C(=O)c1ccc(F)cc1 | -7.1%
Cc1nnc(SCC(=O)NC(C)(C)C)n1C1CCCCC1 | -8.4%
N#C/C(=C(/O)c1ccc([N+](=O)[O-])cc1)c1nc2ccccc2[nH]1 | 4.1%
Cc1ccc(-n2nc3c(=O)n(CC(=O)NC4CCCCC4)nc(C)c3c2C)cc1 | -1.6%
Cc1c(Cl)cccc1-n1ncc(C(=O)NCCN2CCN(C)CC2)c1C1CCN(C(=O)OC(C)(C)C)CC1 | 13.8%
CC(C)(C)n1nc(Cc2cccc3ccccc23)c(C#N)c1N | -7.6%
Cc1ccc(C)c(S(=O)(=O)NCC(=O)Nc2sc3c(c2C(N)=O)CCC(C)C3)c1 (configuration not stated) | -1.2%
COCCn1nnnc1C(C(C)C)N(Cc1cccnc1)Cc1cc2cc(OC)ccc2[nH]c1=O (configuration not stated) | 2.6%
Cc1ccc(-c2nnc(SCC(=O)NCC3CCCO3)n2C)cc1 (configuration not stated) | -7.7%
Cn1c(SCC(=O)N2CCOCC2)nc(O)cc1=O | 2.9%
CC1(C)OC(=O)C(=NNc2ccccc2)C(=O)O1 | 13.3%
CCOCC(=O)Nc1cc(C(=O)OC)cc(C(=O)OC)c1 | 0.2%
COc1ccc(N=C2SCC(=O)N2c2ccc(OC)cc2)cc1 | -14.1%
FC(F)(F)c1cccc(NC(=S)N(CCCN2CCCC2)Cc2cccn2Cc2ccc(Cl)cc2)c1 | -4.5%
Cc1ccc(-c2csc3ncnc(-n4nnc5ccccc54)c23)cc1C | -12.1%
C=CCOc1ccccc1CN1CCC(n2nccc2NC(=O)c2ccccc2)CC1 | -15.9%
CCOc1ccc(NC(=O)Nc2ccc3nccnc3c2)cc1 | -1.6%
COC(=O)c1ccc(SCC(=O)NC2CCCC2)c([N+](=O)[O-])c1 | -17.2%
Cc1ccc2[nH]c(=O)c(CC(=O)O)c(-c3ccccc3)c2c1 | -28.1%
Cc1ccc(Cl)cc1NC1=NC(=S)N(C(C)C)C12CCCCC2 | -4.2%
Cc1ccc(Cl)cc1N1CCN(C(=O)COCc2cc(-c3ccc4c(c3)OCO4)on2)CC1 | 0.9%
CCc1ccc(Oc2cc(C)nc(N)n2)cc1 | -7.1%
O=C(CNC(=O)c1ccc([N+](=O)[O-])cc1)N/N=C\c1ccc(OC(=O)c2ccccc2)cc1 | -2.7%
CCOC(=O)c1c(C)[nH]c(C(=O)COC(=O)C2CC2)c1C | -8.3%
CN(Cc1ccccc1)S(=O)(=O)c1cccc2cccnc12 | -6.2%
Nc1ccc(N2CCOCC2)c(Cl)c1 | 6.3%
Cc1onc(-c2c(Cl)cccc2Cl)c1C(=O)NNc1ccccc1 | u
O=C(COc1ccccc1)Nc1nnc(-c2ccco2)o1 | 4.4%
Cc1ccc(O)c(Cn2nnc3ccccc32)c1 | 9.7%
O=C(COc1ccc(S(=O)(=O)N2CCCC2)cc1Cl)NC1CCCC1 | 11.0%
CC1CCCN(CCCNC(=O)c2coc3nc4ccccc4nc23)C1 (configuration not stated) | 8.1%
C/C=C(\C)C(=O)N[C@@H](C)CN1C2=NC[C@H](C(C)C)N2C[C@H]1Cc1ccc(OC)cc1 | -11.4%
Cc1oc(-c2ccccc2)nc1CSc1nc2c(c(=O)[nH]1)CCC2 | -13.8%
COc1ccc2[nH]cc(CCNS(=O)(=O)c3ccccc3)c2c1 | 5.8%
NC(=O)c1ccccc1NC(=S)NC(=O)CCc1ccccc1 | u
O=C(Nc1ccc(OC(F)(F)F)cc1)C1CC(=O)N(Cc2ccco2)C1 (configuration not stated) | 3.3%
C#CCN(CC=C)C(=O)c1ccc2nc(C3CCCCC3)oc2c1 | -9.9%
CC[n+]1ccc(C(=O)NCc2ccccc2)cc1 | -1.4%
CCCNC(=O)C1CNc2ccccc2O1 (configuration not stated) | -14.3%
O=C(c1ccc(S(=O)(=O)N2CCOCC2)cc1)N1CCN(c2cccc(Cl)c2)CC1 | -6.4%
Cc1noc(C)c1C(=O)OCC(=O)Nc1ccccc1C(=O)NC(C)c1ccccc1 (configuration not stated) | 25.3%
O=C(N/N=C/c1ccc(OC(=O)c2ccco2)cc1)c1ccccn1 | -0.9%
COc1ccccc1C1C(C(=O)c2ccco2)=C(O)C(=O)N1c1cc(C)on1 (configuration not stated) | -10.4%
COc1ccc(C2=NCC(CSc3nnc(-c4ccc5c(c4)OCO5)o3)S2)cc1 (configuration not stated) | -8.6%
O=C(NNC(=S)NCCCN1CCOCC1)c1ccncc1 | -8.1%
CCCCN(C(=O)/C=C/c1ccco1)c1c(N)n(Cc2ccccc2)c(=O)[nH]c1=O | 23.6%
CCC(COC(C)=O)Nc1nc2c([nH]1)c(=O)n(C)c(=O)n2C (configuration not stated) | 16.4%
O=C(O)/C(=C\c1ccccc1Cl)c1ccc(S(=O)(=O)N2CCCCC2)s1 | -6.1%
CCC(Oc1ccc(C)c(C)c1)C(=O)N1CCCN(C)CC1 (configuration not stated) | -14.3%
Cc1ccc(C)c(C(=O)N(C)CC(=O)Nc2ccccc2C(F)(F)F)c1 | -5.0%
O=C(NCc1ccccc1Br)c1cccc2c1C(=O)c1ccc(N3CCC(Cc4ccccc4)CC3)cc1S2(=O)=O | -8.2%
O=C(/C=C1\SC(=O)N(CC(=O)Nc2ccc(Cl)cc2)C1=O)Nc1ccc(F)cc1 | 1.4%
CCCc1nc(NCc2ccc3c(c2)OCO3)c2nnn(Cc3ccccc3Cl)c2n1 | -1.5%
N#Cc1nc(COc2ccccc2F)oc1N1CCCCCC1 | 19.7%

Reformatted field by field: part of the list above.
structure: CCC(Oc1ccc(C)c(C)c1)C(=O)N1CCCN(C)CC1 (configuration not stated)
  VDR inhibitor = -14.3%

structure: Cc1ccc(C)c(C(=O)N(C)CC(=O)Nc2ccccc2C(F)(F)F)c1
  VDR inhibitor = -5.0%

Continued.
molecule | VDR inhibitor
O=C(CNC(=O)c1cc(-c2ccccc2)nn1-c1ccccc1)Nc1ccccc1Br | -1.3%
COc1cc(/C=C2\SC(c3ccc(C)cc3)=NC2=O)ccc1O | u
CCOCCCn1c(SCC(=O)Nc2ccc(CC)cc2)nc2ccccc2c1=O | 7.8%
CCN(CC)c1ccc(/C=C(\C#N)C(N)=S)cc1 | 0.7%
Cc1oc(-c2ccccc2)nc1CNC(=O)Nc1ccccc1 | 17.8%
COC(=O)c1ccc(CN2CCCC(CO)(Cc3ccc(F)cc3F)C2)cc1 (configuration not stated) | 3.7%
CCOc1ccc(NC(=O)CSCc2cnn(-c3ccccc3)c2-n2cccc2)cc1 | 2.6%
O=C1CCCN1Cc1ccccc1 | -18.0%
CCO[C@@H]1OC(C(=O)NCc2nc3ccccc3[nH]2)=C[C@H](c2ccccc2)[C@H]1CCCO | -8.6%
Cc1cc2c(cc3c(SCc4ccc(Cl)cc4)nncn32)o1 | 3.6%
CC(=O)NCc1ccc(S(=O)(=O)N/N=C/c2ccc(Br)cc2)cc1 | -5.6%
O=C(Nc1cccc(C(F)(F)F)c1)c1cc2c(=O)c3ccccc3oc2nc1C(F)(F)F | 11.0%
COc1ccc(C=C(C(=O)O)c2ccc(OC)cc2)cc1 | -8.2%
Cc1ccc(Nc2[nH]c(=O)c3ccccc3c2C(=O)c2ccccc2)cc1 | -1.1%
CCOC(=O)CSc1nnnn1-c1cc(OC)c(Cl)cc1OC | 11.3%
O=C(COC(=O)CSc1ccc(F)cc1)NCC1CCCCC1 | 7.8%
O=C1N=C2SCCN2/C1=C\c1c(Cl)cccc1Cl | 5.5%
O=C(CSc1nnc(Cn2c(=O)sc3ccccc32)n1-c1ccccc1)N1CCOCC1 | -8.7%
CON/C=C(\C=Nc1ccc(Cl)cc1Cl)c1ncc(C(F)(F)F)cc1Cl | 3.2%
Cc1ccc(NC(=O)CSc2nc3ccccc3c(=O)n2CCCN2CCCCC2)cc1Cl | 6.7%
N#C/C(=C\c1cccc(O)c1)c1nc2ccccc2o1 | 2.1%
CCC(=O)c1ccc(OCC(=O)OCC(=O)NC2CCCCCC2)cc1 | 4.0%
Cc1ccc(C(=O)COC(=O)C2C3C=CC(C3)C2C(=O)OCC(=O)c2ccc(C)c(C)c2)cc1C (configuration not stated) | 3.3%
Cc1cc(NS(=O)(=O)c2ccc(NC(=O)c3cc4c(=O)n5ccccc5nc4s3)cc2)nc(C)n1 | -9.4%

Of the compounds above, these contain a cyano group:
molecule | VDR inhibitor
N#C/C(=C(/O)c1ccc([N+](=O)[O-])cc1)c1nc2ccccc2[nH]1 | 4.1%
CC(C)(C)n1nc(Cc2cccc3ccccc23)c(C#N)c1N | -7.6%
N#Cc1nc(COc2ccccc2F)oc1N1CCCCCC1 | 19.7%
CCN(CC)c1ccc(/C=C(\C#N)C(N)=S)cc1 | 0.7%
N#C/C(=C\c1cccc(O)c1)c1nc2ccccc2o1 | 2.1%

The list goes on.
molecule | VDR inhibitor
O=C(CN1CCS(=O)(=O)CC1)NNC(=O)C1CCCCC1 | 1.4%
O=C(C[C@H]1C[C@H](C(=O)N2CCOCC2)[C@@]2(CCC3CCCC3)c3[nH]c4cc(-c5ccco5)ccc4c3CCN2C1=O)NCCN1CCOCC1 | 7.2%
O=C(Sc1ccc(Cl)cc1)c1cccc(Cn2cc(C(F)(F)F)ccc2=O)c1 | u
O=C(Nc1ccc(F)cc1)Nc1csc2ccccc12 | 15.6%
COc1cc(CN2CCN(C(=O)CC(C)C)CC2)cc(OC)c1O | -4.3%
O=C(Cn1ccc(NC(=O)OCc2ccccc2)nc1=O)NCc1ccccn1 | -11.6%
CC(C)(C)NC(=O)C1N(c2cccnc2)C(=O)C2C(C(=O)Nc3ccccc3)C3(C)C=CC21O3 (configuration not stated) | 14.5%
O=C(NCc1ccc(F)cc1)C(=O)NCC1OCCN1S(=O)(=O)c1cccs1 (configuration not stated) | -21.3%
Cc1ccc(C(=O)NCc2nnnn2-c2ccc(C)c(C)c2)cc1 | -1.5%
CC(=O)c1sc(NC(=O)CSCc2c(C)noc2C)nc1-c1ccccc1 | u
Cc1cc(C)nc(N/N=C/c2cn[nH]c2-c2ccc(F)cc2)n1 | -21.0%
COCCCNC(=O)Cn1ncc2c(=O)oc3ccccc3c21 | -4.5%
O=C1COc2cc(O)ccc21 | -8.9%
CCOC(=O)c1c(C)oc2c1c(C=NCCC(=O)O)c(O)c1ccccc12 | -12.1%
O=C(Nc1cccc(/C=C/c2ccccn2)c1)c1cc(Cl)ccn1 | -19.9%
Cc1ccc(OCC(=O)NCCNC(=O)COc2ccc(C)cc2)cc1 | -5.2%
Cc1cnc(CNc2ncnc3ccc(-c4c(C)noc4C)cc23)cn1 | -17.7%
COc1cc(/C=N/NC(=O)c2ccc(COc3ccccc3Cl)o2)cc(Br)c1O | -9.0%
COc1ccccc1-n1c(=O)c2c3c(sc2n2c(SC(C)C)nnc12)CCC3 | -5.5%
CCOc1ccc(CNC(=O)c2cccc(NC(=O)C3=C(C)OCCS3)c2)cc1 | -6.2%
CC(=O)Nc1ccc(S(=O)(=O)N2CCCC(C(=O)O)C2)cc1 (configuration not stated) | -0.5%
O=C(NCCc1nnc2ccc(NCCCN3CCOCC3)nn12)c1ccccc1 | -17.7%
O=C(CN1C(=O)NC(CCc2ccccc2)C1=O)NC1CC1 (configuration not stated) | -4.6%
COc1ccc(S(=O)(=O)N2CCN(CC(O)COc3ccc(C#N)cc3)CC2)cc1OC (configuration not stated) | -5.9%

4 of the entries above in order of their number in VDR inhibitor, largest number first:
molecule | VDR inhibitor
O=C(CN1C(=O)NC(CCc2ccccc2)C1=O)NC1CC1 (configuration not stated) | -4.6%
Cc1ccc(OCC(=O)NCCNC(=O)COc2ccc(C)cc2)cc1 | -5.2%
CCOc1ccc(CNC(=O)c2cccc(NC(=O)C3=C(C)OCCS3)c2)cc1 | -6.2%
O=C(Nc1cccc(/C=C/c2ccccn2)c1)c1cc(Cl)ccn1 | -19.9%
